NOMO-1 viab: STK33 inhibitor candidate reducing NOMO-1 cell viability; NOMO-1 AML viability, CellTiter-Glo luminescence, 72 h; inhibition, % (concentration not given with the values); 37,000 tested, 7.5% active; AID 2330;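 active means most replicates above 80%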;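 further: wells of about 30 µL received 25 nL stock; 0% = median of vehicle wells and 100% = reference inhibitor level; the first replicate is given; inactives centre near 10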
An asterisk follows results filed as active. An excerpt (hit frequency here may not be typical).

SMILES	NOMO-1 viab
COc1ccc(NC(=O)Nc2ccc3c(c2)C(=O)N([C@@H](C)CO)C[C@H](C)[C@H](CN(C)S(=O)(=O)c2cn(C)cn2)O3)cc1	-6
Cc1ccc([N+](=O)[O-])c(OCCCN2C(=O)NC(C)(C)C2=O)c1	26
CC(C)NC(=O)Nc1ccc2c(c1)C(=O)N([C@H](C)CO)C[C@H](C)[C@@H](CN(C)C(=O)NC(C)C)OCCCC[C@@H](C)O2	-8
CNc1nc(SC(C)C(=O)OC)nc(N2CCOCC2)n1 (stereo unspecified)	13
C[C@H](CO)N1C[C@H](C)[C@H](CN(C)C(=O)Nc2ccc3c(c2)OCO3)Oc2c(NC(=O)NC3CCCCC3)cccc2C1=O	-7
C[C@H]1CN([C@@H](C)CO)C(=O)c2cc(NC(=O)Cn3cnnn3)ccc2O[C@H]1CN(C)Cc1ccc(C(=O)O)cc1	31
C[C@H]1CN([C@@H](C)CO)C(=O)c2cc(NC(=O)NC3CCCCC3)ccc2O[C@H]1CN(C)Cc1ccncc1	100*
C[C@H](CO)N1C[C@H](C)[C@@H](CN(C)C(=O)Nc2ccccc2)Oc2c(NS(=O)(=O)c3ccc(Cl)cc3)cccc2C1=O	25
C[C@H]1CN([C@@H](C)CO)C(=O)c2cc(NS(=O)(=O)c3ccc(Cl)cc3)ccc2O[C@H]1CN(C)Cc1ccccc1	20
O=c1c(=O)n2c(nn1Cc1ccc(F)cc1)sc1ccccc12	0
C[C@H]1CN([C@@H](C)CO)C(=O)c2cc(NS(=O)(=O)c3cccs3)ccc2O[C@H]1CN(C)C(=O)NC1CCCCC1	-4
COc1cccc(NC(=O)CSc2nnc(-c3cccc(C)c3)n2-c2ccccc2)c1	-7
C[C@H]1CN([C@@H](C)CO)C(=O)Cc2cc(NC(=O)Cc3ccccc3)ccc2O[C@H]1CN(C)C	26
C[C@@H]1CN([C@H](C)CO)C(=O)c2cc(NC(=O)CCC(F)(F)F)ccc2O[C@@H]1CN(C)Cc1ccncc1	26
COc1ccc(CN(C)C[C@H]2Oc3c(NC(=O)C4CC4)cccc3C(=O)N([C@@H](C)CO)C[C@H]2C)cc1	-17
COc1ccc(S(=O)(=O)N(C)C[C@@H]2Oc3c(NC(=O)Nc4c(C)noc4C)cccc3C(=O)N([C@H](C)CO)C[C@@H]2C)cc1	2
Cc1noc(C)c1NC(=O)N(C)C[C@@H]1Oc2c(cccc2N(C)C)C(=O)N([C@H](C)CO)C[C@@H]1C	-14
COc1cccc(OC)c1C(=O)NC(=S)Nc1cccc(-c2nn3c(C)nnc3s2)c1	122*
C[C@H]1CN([C@@H](C)CO)C(=O)Cc2cc(NC(=O)Nc3ccccc3)ccc2O[C@@H]1CN(C)S(=O)(=O)c1ccccc1	-5
C[C@@H]1CN([C@H](C)CO)C(=O)Cc2cc(NC(=O)Nc3ccccc3)ccc2O[C@H]1CN(C)S(C)(=O)=O	-15
COC(=O)c1c(NC(=S)N2CCN(Cc3c(C)nn(C)c3C)CC2)sc2c1CCC(C)C2 (stereo unspecified)	58
C[C@@H]1CN([C@H](C)CO)C(=O)c2cccc(NC(=O)C3CCOCC3)c2O[C@H]1CN(C)S(=O)(=O)c1ccc(F)cc1	-5
CC(C)NC(=O)N(C)C[C@H]1Oc2ccc(NC(=O)Nc3ccccc3)cc2CC(=O)N([C@@H](C)CO)C[C@H]1C	-2
COc1ccc(NC(=O)N(C)C[C@H]2Oc3ccc(NS(=O)(=O)c4ccc(Cl)cc4)cc3C(=O)N([C@H](C)CO)C[C@H]2C)cc1	21
C[C@H]1CN([C@@H](C)CO)C(=O)c2cc(NS(=O)(=O)c3ccccc3)ccc2O[C@H]1CN(C)C(=O)Nc1ccc(F)cc1	7
C[C@@H]1CN([C@@H](C)CO)C(=O)c2cc(NC(=O)C3CC3)ccc2O[C@H]1CN(C)Cc1ccc(C(F)(F)F)cc1	-5
C[C@@H]1CCCCO[C@@H](CN(C)Cc2ccc(C(F)(F)F)cc2)[C@@H](C)CN([C@H](C)CO)C(=O)c2cc(NC(=O)CCCN(C)C)ccc2O1	8
C[C@H]1CN([C@@H](C)CO)C(=O)c2cccc(NS(=O)(=O)c3ccccc3)c2O[C@H]1CN(C)Cc1ccc(Cl)c(Cl)c1	6
C[C@@H]1CN([C@@H](C)CO)C(=O)Cc2cc(NC(=O)Nc3ccc4c(c3)OCO4)ccc2O[C@@H]1CN(C)S(C)(=O)=O	-12
Cc1nn(Cc2ccc(F)cc2)c(C)c1NC(=O)C1CC(c2cccc(Br)c2)=NO1 (stereo unspecified)	17
CC(C)NC(=O)Nc1ccc2c(c1)CC(=O)N([C@H](C)CO)C[C@H](C)[C@H](CN(C)Cc1ccc(C(=O)O)cc1)O2	-27
C[C@@H]1CN([C@@H](C)CO)C(=O)c2cc(NS(=O)(=O)c3cn(C)cn3)ccc2O[C@H]1CN(C)C(=O)Nc1ccc(F)cc1	3
C[C@@H]1CCCCO[C@H](CN(C)C(=O)Nc2ccc(C(F)(F)F)cc2)[C@@H](C)CN([C@H](C)CO)C(=O)c2cc(NC(=O)c3ccccc3)ccc2O1	52
C[C@H](CO)N1C[C@H](C)[C@H](CN(C)Cc2ccc(Oc3ccccc3)cc2)Oc2c(NS(=O)(=O)c3cn(C)cn3)cccc2C1=O	22
Cc1[nH]c2ccccc2c1C(O)c1cccnc1 (stereo unspecified)	33
O=C1CCC(=O)N1CNc1cccc(Cl)c1	19

The final 7 compounds of the section above lead into the next:
SMILES	NOMO-1 viab
Cc1nn(Cc2ccc(F)cc2)c(C)c1NC(=O)C1CC(c2cccc(Br)c2)=NO1 (stereo unspecified)	17
CC(C)NC(=O)Nc1ccc2c(c1)CC(=O)N([C@H](C)CO)C[C@H](C)[C@H](CN(C)Cc1ccc(C(=O)O)cc1)O2	-27
C[C@@H]1CN([C@@H](C)CO)C(=O)c2cc(NS(=O)(=O)c3cn(C)cn3)ccc2O[C@H]1CN(C)C(=O)Nc1ccc(F)cc1	3
C[C@@H]1CCCCO[C@H](CN(C)C(=O)Nc2ccc(C(F)(F)F)cc2)[C@@H](C)CN([C@H](C)CO)C(=O)c2cc(NC(=O)c3ccccc3)ccc2O1	52
C[C@H](CO)N1C[C@H](C)[C@H](CN(C)Cc2ccc(Oc3ccccc3)cc2)Oc2c(NS(=O)(=O)c3cn(C)cn3)cccc2C1=O	22
Cc1[nH]c2ccccc2c1C(O)c1cccnc1 (stereo unspecified)	33
O=C1CCC(=O)N1CNc1cccc(Cl)c1	19
COc1ccc(-c2nnsc2N2C(=O)c3ccccc3C2=O)cc1	4
C[C@H](CO)N1C[C@H](C)[C@@H](CN(C)Cc2ccc(C(=O)Nc3ccccc3N)cc2)Oc2ccc(NC(=O)Nc3ccc(C(F)(F)F)cc3)cc2C1=O	33
O=C(Nc1ccccc1)Nc1sccc1-c1nc2ccccc2s1	0
C[C@@H]1CN([C@H](C)CO)C(=O)Cc2cc(NS(=O)(=O)c3ccc(F)cc3)ccc2O[C@@H]1CN(C)C(=O)Nc1ccc2c(c1)OCO2	-1
COc1ccc(NC(=O)C(C)N(c2ccc(C)c(C)c2)S(C)(=O)=O)cc1Cl (stereo unspecified)	1
Cc1cc(C(=O)Nc2cccc3c2O[C@@H](CN(C)S(=O)(=O)c2c(C)noc2C)[C@@H](C)CN([C@H](C)CO)C3=O)n(C)n1	4
C[C@H]1CN([C@@H](C)CO)C(=O)c2cccc(NC(=O)C3CC3)c2O[C@@H]1CN(C)CC1CCCCC1	49
N#Cc1c(NC(=O)c2ccc(Cn3cc(Br)cn3)o2)sc2c1CCCCCC2	6
COc1ccccc1NC(=O)C1=C(C)Nc2ncnn2C1c1ccc(C(=O)O)cc1 (stereo unspecified)	20
C[C@@H]1CN([C@@H](C)CO)C(=O)c2cccc(NS(=O)(=O)c3ccccc3)c2O[C@H]1CN(C)Cc1ccc(Cl)c(Cl)c1	11
Cc1noc(C)c1S(=O)(=O)Nc1ccc2c(c1)C(=O)N([C@@H](C)CO)C[C@@H](C)[C@@H](CN(C)S(=O)(=O)c1ccc(Cl)cc1)O2	6
C[C@H](CO)N1C[C@H](C)[C@H](CN(C)Cc2ccc(Cl)c(Cl)c2)Oc2ccc(NS(=O)(=O)c3ccc(F)cc3)cc2C1=O	22
O=C(CSc1n[nH]c(-c2ccco2)n1)N1c2ccccc2Sc2ccccc21	33
Cc1noc(C)c1NC(=O)Nc1cccc2c1O[C@H](CN(C)S(=O)(=O)c1ccc(Cl)cc1)[C@@H](C)CN([C@@H](C)CO)C2=O	16
C[C@H]1CN([C@@H](C)CO)C(=O)Cc2cc(NC(=O)Cc3ccccc3)ccc2O[C@@H]1CN(C)C(=O)NC1CCCCC1	-19
COc1ccc2c(c1)c(C(=O)ON1C(=O)CCC1=O)c(C)n2C1CC1	-1
C[C@H]1CN([C@@H](C)CO)C(=O)c2cccc(NS(=O)(=O)c3ccccc3)c2O[C@@H]1CN(C)Cc1ccc(-c2ccccc2)cc1	14
C[C@H](CO)N1C[C@H](C)[C@H](CN(C)Cc2ccccc2)Oc2c(NC(=O)Nc3ccc4c(c3)OCO4)cccc2C1=O	84*
COC(=O)Cc1c(C)nc2nc(NCc3c(F)cccc3Cl)[nH]n2c1=O	-12
COc1ccc(S(=O)(=O)Nc2cccc3c2O[C@@H](CN(C)S(=O)(=O)c2ccc(OC)cc2)[C@H](C)CN([C@@H](C)CO)C3=O)cc1	25
C[C@@H]1CN([C@@H](C)CO)C(=O)c2cccc(NC(=O)Nc3ccc4c(c3)OCO4)c2O[C@H]1CN(C)Cc1ccc2c(c1)OCO2	93*
CC(C)NC(=O)Nc1cccc2c1O[C@H](CN(C)Cc1ccc(C(F)(F)F)cc1)[C@H](C)CN([C@@H](C)CO)C2=O	30
C[C@H](CO)N1C[C@H](C)[C@H](CN(C)C(=O)Nc2ccc(F)cc2)Oc2ccc(NC(=O)Cc3ccccc3)cc2CC1=O	4
NS(=O)(=O)c1ccc(N2C(=O)C3CC=CCC3C2=O)cc1 (stereo unspecified)	-3
O=C(CSc1nc(-c2ccccc2)cc(C(F)(F)F)n1)Nc1cccc(Cl)c1Cl	20
CCOC(=O)c1sc(NC(=S)Nc2cnccn2)c(C(=O)OCC)c1C	36
c1ccc(-c2nc(-c3cccs3)[nH]c2-c2ccccc2)cc1	26
C[C@@H]1CN([C@H](C)CO)C(=O)Cc2cc(NC(=O)Cn3cnnn3)ccc2O[C@H]1CN(C)S(C)(=O)=O	21
Cn1c(=O)c2c(nc(SCc3nn[nH]n3)n2Cc2ccccc2)n(C)c1=O	-18
COc1ccc(NC(=O)Nc2cccc3c2O[C@H](CN(C)Cc2ccc(Oc4ccccc4)cc2)[C@H](C)CN([C@H](C)CO)C3=O)cc1	44
Cc1noc(C)c1NC(=O)N(C)C[C@H]1Oc2ccc(NC(=O)NC(C)C)cc2C(=O)N([C@@H](C)CO)C[C@@H]1C	-20
C[C@H]1CN([C@@H](C)CO)C(=O)c2cc(NC(=O)Cc3cn(C)c4ccccc34)ccc2O[C@@H]1CN(C)S(=O)(=O)c1ccc(F)cc1	10
COc1ccc(OC)c(NC(=O)COc2ccc3c4c(c(=O)oc3c2)CCC4)c1	13
C[C@H]1CN([C@@H](C)CO)C(=O)Cc2cc(NC(=O)c3ccncc3)ccc2O[C@H]1CN(C)S(=O)(=O)c1ccccc1	8
CC1OC(=O)CC2C(C(=O)O)=CC3CC(C)(C)CC312 (stereo unspecified)	-5
Cc1noc(C)c1S(=O)(=O)N(C)C[C@@H]1Oc2c(NC(=O)C3CCOCC3)cccc2C(=O)N([C@H](C)CO)C[C@@H]1C	5

Structural class: the entries above containing bromine
SMILES	NOMO-1 viab
Cc1nn(Cc2ccc(F)cc2)c(C)c1NC(=O)C1CC(c2cccc(Br)c2)=NO1 (stereo unspecified)	17
N#Cc1c(NC(=O)c2ccc(Cn3cc(Br)cn3)o2)sc2c1CCCCCC2	6

The results go on:
SMILES	NOMO-1 viab
C[C@@H]1CN([C@H](C)CO)C(=O)Cc2cc(NC(=O)NC3CCCCC3)ccc2O[C@H]1CN(C)C(=O)Nc1ccc2c(c1)OCO2	2
C[C@@H]1CN([C@@H](C)CO)C(=O)Cc2cc(NS(=O)(=O)c3cccs3)ccc2O[C@@H]1CN(C)C(=O)Nc1ccc2c(c1)OCO2	-5
COc1ccc(S(=O)(=O)Nc2ccc3c(c2)CC(=O)N([C@@H](C)CO)C[C@H](C)[C@H](CN(C)Cc2ccc(Oc4ccccc4)cc2)O3)cc1	28
Cc1ccc(S(=O)(=O)Nc2ccc3c(c2)C(=O)N([C@H](C)CO)C[C@H](C)[C@@H](CN(C)S(=O)(=O)c2ccccc2)O3)cc1	16
C[C@@H]1CN([C@H](C)CO)C(=O)c2cccc(NC(=O)Nc3ccc(F)cc3)c2O[C@H]1CN(C)Cc1ccc(C(=O)O)cc1	-1
C[C@H]1CN([C@@H](C)CO)C(=O)Cc2cc(NS(=O)(=O)c3cn(C)cn3)ccc2O[C@@H]1CN(C)Cc1ccc(-c2ccccc2)cc1	20
COC(=O)c1ccccc1NC(=O)CN(C)S(=O)(=O)c1ccccc1	15
C[C@@H]1CN([C@H](C)CO)C(=O)c2cccc(NC(=O)C3CCCCC3)c2O[C@H]1CN(C)S(=O)(=O)c1ccccc1	-1
O=C(CCN1C(=O)C2C3c4ccccc4C(c4ccccc43)C2C1=O)Oc1ccccc1[N+](=O)[O-] (stereo unspecified)	0
C[C@H](CO)N1C[C@H](C)[C@@H](CN(C)Cc2ccc(Oc3ccccc3)cc2)Oc2c(NC(=O)Nc3ccc(C(F)(F)F)cc3)cccc2C1=O	97*
C[C@H]1CN([C@@H](C)CO)C(=O)Cc2cc(NS(C)(=O)=O)ccc2O[C@H]1CN(C)Cc1ccc(C(=O)Nc2ccccc2N)cc1	84*
Cc1ccc(S(=O)(=O)N(C)C[C@@H]2Oc3c(NS(=O)(=O)c4cccs4)cccc3C(=O)N([C@H](C)CO)C[C@H]2C)cc1	-11
C[C@@H]1CCCCO[C@@H](CN(C)CC2CC2)[C@@H](C)CN([C@H](C)CO)C(=O)c2cc(NS(=O)(=O)c3ccccc3)ccc2O1	15
